From PubChem
VDR inh – Inhibitors of the vitamin D receptor (VDR): qHTS | VDR-SRC2-3 peptide fluorescence polarization, 2 h | Potency, µM, inactives show max response, negative = inhibition, actives largely listed as inhibitors | hit rate 0.93% among 400,000 | AID 504847, 2011; active = well fitted inhibition curve with a large enough effect; inconclusive = small, poorly fitted or top-dose-only effect, or another doubt; inactive = no such curve, though single readings can be large or run the other way; note: series mostly up to about 120 µM
Target sequence (P11473 whole entry, looked up): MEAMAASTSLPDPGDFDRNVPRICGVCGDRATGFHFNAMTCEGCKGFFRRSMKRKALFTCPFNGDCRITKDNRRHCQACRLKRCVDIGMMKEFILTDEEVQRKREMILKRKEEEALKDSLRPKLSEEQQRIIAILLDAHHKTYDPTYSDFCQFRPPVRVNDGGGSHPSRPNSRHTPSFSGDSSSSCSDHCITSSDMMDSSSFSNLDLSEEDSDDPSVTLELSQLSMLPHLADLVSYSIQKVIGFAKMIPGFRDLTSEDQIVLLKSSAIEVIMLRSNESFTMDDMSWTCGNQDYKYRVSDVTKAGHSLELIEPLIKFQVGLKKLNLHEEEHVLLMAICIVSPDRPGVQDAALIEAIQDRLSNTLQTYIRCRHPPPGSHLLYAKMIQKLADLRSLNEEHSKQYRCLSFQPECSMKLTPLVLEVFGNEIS
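Fluorescence polarization assay measuring small-molecule disruption of VDR binding to the coregulator peptide SRC2-3. Compounds were pin-transferred (23 nl) into the reagent mix and incubated 2 h at room temperature before reading.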
The depositor's hits bear a star; ? = inconclusive; & = joins results of further samples. % is set by controls: 0 for no effect and ±100 for the full control effect; potency is the fitted concentration of half-maximal effect.

mol | VDR inh
C[C@]12CCC3C(CC[C@H]4C[C@H](OC(=O)c5cccnc5)CC[C@]34C)C1CCC2=O (stereo not given in full) | -11.2%
C[C@]12CC[C@@H]3c4ccc(O)c(O)c4CC[C@H]3[C@@H]1CC[C@@H]2O | -15.3%
O=P1(Oc2ccccc2)C[C@@H](O)[C@@H](O)[C@H](COCc2ccccc2)O1 (stereo not given in full) | -21.4%
CCOC(=O)C1=C(C)OC(N)=C(C#N)C12C(=O)N(C)c1ccccc12 (stereo not given) | 4.1%
CCCn1ncc(CN2CCCC(C(=O)c3cccc(OC)c3)C2)c1C (stereo not given) | 9.5%
Cc1cc(C=O)c(C)n1C(C)C | -6.2%
c1cc2cc(c1)C[n+]1ccc(c3ccccc31)NCc1ccc(cc1)CNc1cc[n+](c3ccccc13)C2 | -6.3%
COC(=O)C(c1ccccc1)C1CCCCN1 (stereo not given) | -2.1%
COc1c(C)cc(C(=O)C2CCCN(Cc3cnc(C)s3)C2)cc1C (stereo not given) | -4.8%
C=CCn1c(O)c(C(CC)=NC(C)c2ccccc2)c(=O)[nH]c1=O (stereo not given) | 2.2%

mol | VDR inh
COC(=O)C1=C(c2c(C)noc2C)C[C@@H]2CC[C@H]1N2C(=O)NCc1ccc(F)cc1 | -9.2%
N#CC[N+]1(CCCNP2(=O)C=C(c3ccccc3)OC(c3ccccc3)=C2)CCOCC1 | -17.9%
FC(F)(F)c1ccc(CNCCc2c[nH]c3ccccc23)cc1 | -10.8%
O=Cc1cn(Cc2ccc(F)cc2Cl)c2ccccc12 | -19.3%
O=C(O)c1cc[c]([Hg][Cl])cc1 | 10µM*
O=C(/C=C/c1ccc(Br)cc1)NC(=S)N1C[C@H]2C[C@H](C1)c1cccc(=O)n1C2 | 3.7%
c1ccc2c(CNC3CCCCCC3)c[nH]c2c1 | 2.4%
CCCCC(=O)N/N=C/c1c(O)n(CC)c(=S)n(CC)c1=O | -12.3%
COc1ccccc1CCNC1CCC(C(C)(C)C)CC1 (stereo not given) | 18.4%
NCCCP(=O)(O)O | 4.2%

mol | VDR inh
CC(=O)Nc1ccccc1C(=O)OCC(=O)c1ccc2c(c1)OCCO2 | -16.9%
O=[N+]([O-])/C=C1/NCCN1Cc1ccc(Cl)nc1 | -0.4%
CC/C(=N\NC(=S)Nc1ccccc1)c1c(O)[nH]c(=O)[nH]c1=O | 5.5%
CCN1C[C@]2(COC(=O)c3ccccc3N3C(=O)C[C@H](C)C3=O)CC[C@H](OC)[C@@]34[C@@H]5C[C@H]6[C@H](OC)[C@H]5[C@](O)(C[C@@H]6OC)[C@@](O)([C@@H](OC)[C@@H]23)[C@@H]14 | -2.7%
Cc1cc(N2C(=O)C3CCCN3C2c2ccc(Cl)c(Cl)c2)no1 (stereo not given) | 1.3%
COC(=O)c1ccc2[se]c(CC3CCCCC3)c(I)c2c1 | 3.9%
CNS(=O)(=O)c1ccc(-c2ccc(C=C3C(=O)NC(=O)NC3=O)o2)cc1 | 44.7µM*
CC(=NCc1ccco1)c1c(O)n(-c2ccccc2C)c(=O)[nH]c1=O | -3.9%
O=C(c1ccc2c3c(cccc13)CC2)C1CCCN(CC2CC2)C1 (stereo not given) | 6.0%
Cc1ccc(S(=O)(=O)N(C)N=O)cc1 | 1.2%

mol | VDR inh
COc1ccc(NC(=O)CCc2nc(C3=CCN(Cc4cccc(Cl)c4)CC3)no2)c(OC)c1 | 1.2%
Nc1c2c(nc3sc4c(c13)CCCC4)CCCC2 | 1.9%
c1ccc(C2NCc3ccccc3-n3cccc32)cc1 (stereo not given) | 5.9%
CCCCCn1c(=O)c(C(=O)NCc2ccccc2Cl)c(O)c2ccccc21 | 2.2%
CCCC(=O)c1ccc(CP(=O)(OCC)OCC)o1 | -6.9%
CC(C(=O)c1ccc(Cl)cc1Cl)n1cncn1 (stereo not given) | -16.6%
CCCCCSc1cc(O)c(C(CNC)C(C)C)cc1OC (stereo not given) | 4.8%
CCCN(CCC)[C@@H]1CCc2c(OC)cccc2[C@@H]1C | -12.2%&-2.4%
NS(=O)(=O)c1ccc(CCNC(=O)c2ccc(Cl)c(S(=O)(=O)N3CCCCCC3)c2)cc1 | 6.5%
O=C1NC(=O)C(=Cc2ccsc2)C(=O)N1 | -10.1%

mol | VDR inh
O=C(NN=Cc1ccc(N(CCCl)CCCl)cc1)c1cccc([N+](=O)[O-])c1 | -17.4%
CCCCSP1(=S)NCCCN1 | -12.9%
CCOP(=S)(OCC)SCOC(=O)NCC(=O)OC | 4.0%
COc1cc2c(c(OC)c1OC)-c1ccc(O)cc1C(NC(C)=O)CC2 (stereo not given) | 1.7%
Nc1c(C(=O)OCc2ccccc2)c2nc3ccccc3nc2n1Cc1cccs1 | -11.5%
Cn1c2ccccc2c2c(C(=O)N3CCC4(CC3)OCCO4)cn(C3CCCC3)c(=O)c21 | 5.7%
COc1ccc(NC2=NCC(C)S2)cc1 (stereo not given) | -1.4%
C=C(C)[C@@]12OC3(c4ccccc4)O[C@@H]1C1[C@@H]4O[C@]4(CO)[C@@H](O)[C@]4(O)C(=O)C(C)=C[C@H]4[C@@]1(O3)[C@H](C)[C@H]2OC(=O)/C=C/C=C/c1ccccc1 (stereo not given in full) | -4.0%
CCN1C[C@@]2(COC)C3[C@@H](OC)[C@H]4[C@@H]1[C@@]3(C1C[C@H]3[C@H](O)C1[C@]4(O)C[C@H]3OC)[C@@H](OC)C[C@H]2O (stereo not given in full) | -11.7%
CC[C@]1(c2cccc(O)c2)CCCCN(C)C1 | 4.8%

mol | VDR inh
C/C(=C/C=C/[C@@H](C)C(=O)O)[C@H]1CN[C@H](C(=O)O)[C@H]1CC(=O)O | ?
Clc1cccc(SC2CCNCC2)n1 | 0.3%&-3.7%
CN(C)CC1CSCCC1(O)c1cccc(Cl)c1 (stereo not given) | -1.7%
COC(=O)C1=C(c2ccccc2)C[C@@H]2CC[C@H]1N2C(=O)NC1CCCCC1 | -2.4%
CS(=N)(=O)CC[C@@H](N)C(=O)O (stereo not given in full) | 4.1%
Nc1ccc(C2(c3ccc(N)cc3)c3ccccc3-c3ccccc32)cc1 | ?
C=CCC1C(=O)NC(=S)NC1=O | 89.1µM*
CN(C)CCCNCC(=O)Nc1ccc(Cl)cc1C(=O)c1ccccc1 | -7.2%
CC1COC2N=C(N[N+](=O)[O-])NC2O1 (stereo not given) | -3.9%
CC(C)c1cc(Br)c(NC(=O)Nc2cccnc2)c(Br)c1 | 8.9%

mol | VDR inh
O=c1cccc2n1CC1CNC[C@H]2C1 | -20.7%&3.8%
CCC(C)C1NC(=O)C(C(C)=O)=C1O (stereo not given) | 2.3%
CC(=O)OC1CCC2(C)C(=CC(=O)C3C2CCC2(C)C(OC(C)=O)CCC32)C1 (stereo not given) | -21.1%
O=C(O)CCCCC1SCC2NC(=O)NC21 (stereo not given) | 6.1%&2.1%
O=S(=O)(c1ccc(O)cc1)c1ccc(O)cc1 | -7.0%
CCC1=C(C)C(N2CCOCC2)=NP(N2CCOCC2)(N2CCOCC2)=N1 | -12.6%
Cn1c(=O)c2c(nc(N/N=C/c3c(O)n(C4CCCCC4)c(=S)[nH]c3=O)n2C)n(C)c1=O | ?
CC(C)C[C@H](NC(=O)[C@H](Cc1ccccc1)NC(=O)CNC(=O)[C@@H](NC(=O)[C@@H](N)Cc1ccc(O)cc1)[C@H](C)O)C(=O)N[C@H](C(=O)O)[C@H](C)O | -0.4%
COC(=O)C1=C(c2ccc3ccccc3c2)C[C@@H]2CC[C@H]1N2C(=O)N1CCC(O)CC1 | -1.6%
CC1(O)CCN2C(=O)CCc3cccc1c32 (stereo not given) | 14.9%

mol | VDR inh
O=C(Cc1cccc(C(F)(F)F)c1)N1CCN(CC(=O)N2CCCC2)CC1 | -3.9%
O=C(NN=Cc1ccc(N(CCCl)CCCl)cc1)c1cccnc1 | -0.7%
COCCN1C(=O)/C(=C/c2c(OC)cc(OC)cc2OC)C(=O)N(c2ccccc2)C1=O | -11.0%
Oc1ccc2c3c1O[C@H]1[C@H](O)CC[C@@]4(O)[C@@H](C2)N(CC2CC2)CC[C@]314 | 11.9%
OC12CCCCC1C(c1ccccc1)NCC2 (stereo not given) | 0.6%
CN1CCC2=C[C@H](O)[C@@H]3OC(=O)c4cc5c(cc4[C@H]3[C@H]21)OCO5 | 1.1%
CCOC(=O)C(O)(c1ccc(NC(=O)NC2CCCCC2)cc1)C(F)(F)F (stereo not given) | -10.4%
CC1=CC(=O)OC2CC3OC4C[C@@H](C)C5OC6CC7O[C@]8(C)C/C=C\C9OC%10CC%11OC(CC(C)C%12OCCO%12)CC(O)[C@]%11(C)OC%10CC9OC8C[C@]7(C)O[C@]6(C)CCC5OC4C[C@]3(C)OC12 (stereo not given in full) | ?
COc1ccc(NC(=O)N2C[C@@H]3C[C@@H](C2)c2cccc(=O)n2C3)c(OC)c1 | 10.8%
O=c1[nH]c(=O)n(Cc2ccco2)c(O)c1C=NCc1ccc2c(c1)OCO2 | 2.0%

mol | VDR inh
CC1(C)C[C@H]2C=C(C=O)[C@]3(C=O)C[C@]3(C)[C@H]2C1 | -19.0%
O=c1[nH]c(=S)n(-c2ccccc2)c(O)c1/C=N/N1CCCCC1c1cccnc1 (stereo not given) | 28.7%
CN1CCC(O)(c2ccccc2)C(C(=O)c2ccccc2)C1 (stereo not given) | ?
CCC(=O)N1CC(=O)Nc2ccc(Cl)cc2C1c1ccc(F)cc1 (stereo not given) | 11.2%
Nc1ccc(N)cc1 | ?
COC(=O)C1=C(c2ccc(-c3ccccc3)c(F)c2)C[C@@H]2CC[C@H]1N2C(=O)NC1CC1 | -10.7%
COC(=O)C1=C(c2ccc3ccccc3c2)C[C@@H]2CC[C@H]1N2C(=O)NC(C)C | 4.2%
Cc1ccc2nc(NC(=O)c3cccn(Cc4ccccc4F)c3=O)sc2c1 | -3.8%
O=P1(NCc2ccco2)COc2ccccc2OC1 | 1.0%
O=C(Nc1ccc(Br)cc1C(=O)c1ccccc1Cl)c1ccccc1F | -3.8%

mol | VDR inh
COC(=O)[C@@H]1C(OC(=O)c2ccccc2)CC2CCC1N2C (stereo not given in full) | -9.7%
COc1cccc2cc(-c3cc(=O)oc4ccc(OC(=O)N(C)C)cc34)oc12 | -10.1%
NNc1n[nH]c(=S)n1N | -20.6%
Cc1ccc(-c2nc3ccccc3c(=O)n2-n2cccc2)cc1 | -12.1%
O=C1NC(=O)N(Cc2ccco2)C(=O)/C1=C\c1cccn1CCOc1ccc(Cl)cc1 | -27.0%
O=C(CN1CCCCC1)c1ccc(OC(F)F)cc1 | 4.2%
COC(=O)C1=C(c2ccc(Cl)c(C(F)(F)F)c2)C[C@@H]2CC[C@H]1N2C(=O)NCCOc1ccc(OC)cc1 | -0.1%
CC(C)Oc1cccnc1N(C)C1CCN(Cc2ccccc2)CC1 | -0.5%&3.9%
O=C1C2CCCC1C(N1CCCCC1)CC2 (stereo not given) | -6.1%
Nc1ccc(Cl)cc1C(=O)c1ccccc1 | -4.3%

mol | VDR inh
COc1ccc(OCC(=O)N2CCN(C(C)C)CC2)cc1 | 10.6%
CCOC(=O)N1CCCN(/[N+]([O-])=N/Oc2ccc([N+](=O)[O-])cc2[N+](=O)[O-])CC1 | ?
CCN1CCN(C(=O)COc2ccc(S(=O)(=O)N(C)Cc3ccccc3)cc2)CC1 | 5.6%
C/C=C1\C[N@@+]2(C)CC[C@@]34C(=C(C=O)[C@H]1C[C@H]32)Nc1ccccc14 | 6.2%
c1ccc2sc(C3(NCC4CC4)CCCCC3)cc2c1 | 7.0%
CC(C)CC(NC(=O)CCCNC(=O)CCC(=O)OC1O[C@H]2OC3(C)CC[C@H]4[C@H](C)CCC(C1C)C24OO3)C(=O)O (stereo not given in full) | -0.7%
CC[n+]1c(/C=C/N(C)c2ccccc2)sc2ccc(Cl)cc21 | 0.5%
CN1CCN(c2ccc(N)c(N3CCN(C)CC3)c2)CC1 | 7.9%
CCCC[C@@H](C)C[C@@H](C)C(=O)N(C)[C@@H](CC(C)C)C(=O)N[C@H](C(=O)N(C)[C@H](C(=O)N1C[C@@H](O)C[C@H]1C(=O)N1C(=O)C=C[C@@H]1C)C(C)C)C(C)OC(C)=O (stereo not given in full) | -2.1%
Cc1cc(OCC(=O)NC2CCS(=O)(=O)C2)c2c3c(c(=O)oc2c1)CCC3 (stereo not given) | -8.8%

Reformatted: 4 of the compounds above
C/C=C1\C[N@@+]2(C)CC[C@@]34C(=C(C=O)[C@H]1C[C@H]32)Nc1ccccc14
  VDR inh: 6.2%

c1ccc2sc(C3(NCC4CC4)CCCCC3)cc2c1
  VDR inh: 7.0%

CCOC(=O)N1CCCN(/[N+]([O-])=N/Oc2ccc([N+](=O)[O-])cc2[N+](=O)[O-])CC1
  VDR inh: ?

CC(C)CC(NC(=O)CCCNC(=O)CCC(=O)OC1O[C@H]2OC3(C)CC[C@H]4[C@H](C)CCC(C1C)C24OO3)C(=O)O (stereo not given in full)
  VDR inh: -0.7%

More compounds follow.
mol | VDR inh
O=C(N/N=C/c1c(O)n(C2CC2)c(=S)[nH]c1=O)c1ccccc1 | -2.1%
CN(C)C(=O)Oc1ccc2nnc3ccnn3c2c1 | -29.4%
COc1cc2c(cc1/C=C/[N+](=O)[O-])OCO2 | 25.1µM*
CC(N)C(=O)NC1C2C(=C(O)CC(O)C2O)C(=O)OC1(C)C(Cl)Cl (stereo not given) | -17.6%
Nc1ccc([N+](=O)[O-])cc1 | -1.0%
Cc1ccc2ccccc2c1NC(=O)CNC1CCCCC1 | -1.8%
Cc1ccc(NC(=S)NCCc2cnc[nH]2)cc1C | 2.7%
CCCCOC(=O)c1ccc(NC(=O)c2c(O)[nH]c(=O)[nH]c2=O)cc1 | 0.4%
COc1ccccc1N1CCN(Cc2ccc(Br)s2)CC1 | -1.9%

Not all compounds are listed; rates above refer to the full screens.
